AmpC inh no det: blocks E. coli AmpC beta-lactamase in absence of detergent | actives 1.8% (n = 71,000) | Potency, µM (series often up to 28.7 µM), for inactives: at the top dose activity change, negative = inhibition | P00811 | AmpC nitrocefin hydrolysis, absorbance 480 nm, no detergent; potencies from a single point are estimates | AID 585; active = falling curve, for most hits resting on a single point; inconclusive = weak or doubtful change; inactive = flat or rising curve; note: % of control where 0% means no effect; about half of the hits show no inhibition at the top dose; a quarter of the inactives give rising signals
Target sequence (P00811 whole entry, looked up): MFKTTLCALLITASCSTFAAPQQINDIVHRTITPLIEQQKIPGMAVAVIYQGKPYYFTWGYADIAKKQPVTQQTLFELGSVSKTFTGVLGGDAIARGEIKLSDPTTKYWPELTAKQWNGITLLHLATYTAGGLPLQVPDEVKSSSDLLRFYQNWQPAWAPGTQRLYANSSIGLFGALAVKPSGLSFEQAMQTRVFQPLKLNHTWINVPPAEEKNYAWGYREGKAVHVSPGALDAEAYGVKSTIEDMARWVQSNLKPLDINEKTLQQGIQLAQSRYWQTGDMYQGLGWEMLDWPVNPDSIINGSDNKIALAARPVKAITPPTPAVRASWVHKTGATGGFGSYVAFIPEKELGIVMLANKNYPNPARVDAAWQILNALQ
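AmpC in 20 mM phosphate buffer pH 7.0 was preincubated 15 min at room temperature with compounds. Nitrocefin (800 uM stock) was then added and hydrolysis followed at 480 nm every 20 s for 4 min.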
* = called active by the depositor; & = joins results of further samples; [ ] = remark or other dose. Potency is the fitted concentration of half-maximal effect. Not all compounds are listed; the hit share may differ from the screen's.

structure	AmpC inh no det
O=C(c1ccc2nc(N3CCOCC3)sc2c1)N1CCC2(CC1)OCCO2	20%
Cc1cccc2cc3c(N)c(C(=O)N4CCOCC4)sc3nc12	92%
CCN(CC)CCCN1C(=O)c2oc3ccccc3c(=O)c2C1c1cccc(OC)c1OC (centres undefined)	7%
CCOc1ccc2nc3c(cc2c1)CN(CCCO)C(=NCCOC)S3	121%
CN1CCN(c2ncnc3ccc(-c4cccnc4)cc23)CC1	-5%
CCCn1c(SCC(=O)c2ccc3c(c2)OCCO3)nnc1-c1ccco1	71%
O=C(CCC(=O)c1cccs1)NCc1ccccc1	-13%
C[C@H](Cc1ccc(O)c(O)c1)[C@@H](C)Cc1ccc(O)c(O)c1	-24%&-19%
CCN1CCN(C(c2cccs2)C(C)NC(=O)c2ccco2)CC1 (centres undefined)	-12%
O=C(CNC(=O)c1ccco1)NCC(=O)OCc1cccc(C(=O)Oc2ccccc2)c1	32%
CCS(=O)(=O)N1CCCC(C(=O)NCc2cccc(OC)c2)C1 (centres undefined)	6%
Cc1ccc(CNc2oc(-c3ccco3)nc2C#N)cc1	-6%
COC(=O)[C@@]1(Cc2ccc(F)cc2)[C@H]2c3cc(C(=O)N(C)C)n(CCN4CCOCC4)c3C[C@H]2CN1C(=O)c1ccccc1	151%
CCNS(=O)(=O)c1ccc(NC(=O)c2ccccc2OCC)cc1	-4%
Cc1c(NS(=O)(=O)c2ccc(Br)s2)c(=O)n(-c2ccccc2)n1C	3%
COc1ccc(CNc2cc(-c3ccccc3OC)ncn2)c(OC)c1	42%
COC(=O)C(C#N)C(=C1C(=O)CC(C)(C)CC1=O)c1ccc(O)cc1 (centres undefined)	-9%
O=C(CC(SCCO)c1ccc2c(c1)OCO2)c1cccs1 (centres undefined)	1%
Cc1c(NC(=O)CN2C(=O)C3C4C=CC(C4)C3C2=O)c(=O)n(-c2ccccc2)n1C (centres undefined)	4%
O=C1NC2(CCCCC2)Oc2ccccc21	0%
CCOCC(=O)Nc1sc2c(c1C(=O)OCC)CCCC2	67%
Cc1cc(C)nc(SCC(=O)N2CCCCC2)n1	20%
O=C(NCC1CCCO1)C1CCN(S(=O)(=O)c2cccc3nonc23)CC1 (centres undefined)	-10%
COCCNc1nc(C)nc2c1nc(-c1ccccc1)n2CCN1CCCCC1	24%
Cc1ccc(CC2S/C(=C(/C#N)C(=O)NCc3ccco3)N(c3ccccc3)C2=O)cc1 (centres undefined)	20%
COc1ccc(C2=NOC(C(=O)Nc3ccc(C)cc3)C2)cc1OC (centres undefined)	48%
Clc1ccc(OCc2nn3c(-c4ccco4)nnc3s2)cc1	24%
COc1ccc(NC(=O)C(c2ccc(C)cc2)N(C)C(=O)c2cnccn2)cc1 (centres undefined)	56%
COc1cccc(OC)c1OCCOCCn1cnc2ccccc2c1=O	39%
Cn1c(=O)c2c(nc(NCc3ccccc3)n2CC(=O)NCc2ccccc2)n(C)c1=O	47%

Two neighbouring records already listed:
structure	AmpC inh no det
COc1cccc(OC)c1OCCOCCn1cnc2ccccc2c1=O	39%
Cn1c(=O)c2c(nc(NCc3ccccc3)n2CC(=O)NCc2ccccc2)n(C)c1=O	47%

2 entries drawn at random from those above:
structure	AmpC inh no det
Cc1ccc(CNc2oc(-c3ccco3)nc2C#N)cc1	-6%
O=C1NC2(CCCCC2)Oc2ccccc21	0%

(cont.)
structure	AmpC inh no det
O=C(OCC#CCSc1nc2ccccc2s1)c1ccco1	-3%
CC[C@@]1(O)C(=O)COc2c1cc1n(c2=O)Cc2c-1nc1cccc(C(C)C)c1c2[Si](C)(C)C	82%
CCn1nc(NC(=O)c2cccnc2)c2cc3cccc(C)c3nc21	-2%
Cc1occc1C(=O)n1nnc2ccccc21	10µM*
COC(=O)c1ccccc1NC(=O)c1nc2nc(C)cc(C)n2n1	46%
COc1ccc(-c2nnn(CC(=O)N(CCO)C(C(=O)NC3CCCC3)c3ccc(F)cc3)n2)cc1 (centres undefined)	23%
O=C(O)Cc1cccc2ccccc12	-15%
CC(Nc1n[nH]c(=S)[nH]c1=O)C(=O)OCc1ccccc1 (centres undefined)	-10%
CCOC(=O)N1CCN(S(=O)(=O)c2ccc3c(c2)CCN3C(=O)C2CCC2)CC1	75%
COc1ccc(NC(=O)c2[nH]c(C)c(C(C)=O)c2C)cc1Cl	-8%
COCCN(CC(=O)NCc1ccccc1)C(=O)CCC(=O)Nc1ccccn1	12%
COc1ccc(-n2c(=S)[nH]c3cc(C(=O)NCc4ccco4)ccc3c2=O)cc1OC	3%
Cn1c(SCC(=O)c2cc3ccccc3o2)nnc1-c1ccccc1	16%
COc1cccc(OCc2nc3ncc(Br)cc3[nH]2)c1	-7%
CC(C)Oc1ccc(N2CC(C(=O)Nc3ccccc3F)CC2=O)cc1 (centres undefined)	20%
O=C(c1cccnc1)N1CCN(C(=O)c2cccs2)CC1	-3%
CCC[C@@H]1O[C@@H]2C[C@@H]3[C@@H]4CCC5=CC(=O)C=C[C@@]5(C)[C@H]4[C@H](O)C[C@@]3(C)[C@@]2(C(=O)CO)O1	60%
Cc1ccc(-c2nc(CS(=O)CC(=O)NCc3ccc(Cl)cc3)c(C)o2)cc1 (centres undefined)	75%
CSc1ncc(Cl)c(C(=O)C(C#N)c2nc3c(C)cc(C)cc3c(=O)[nH]2)n1 (centres undefined)	-2%
CC(Cc1ccccc1)C(=O)Nc1ccccc1 (centres undefined)	-4%
CCn1c(SCC(=O)N(C(C)C)C(C)C)nnc1-c1cc2ccccc2cc1O	49%
O=C(CCN1C(=O)c2ccccc2C1=O)N1CCN(C(=O)c2ccccc2)CC1	34%
COC(=O)c1c(N)n(-c2cc(OC)cc(OC)c2)c2nc3ccccc3nc12	84%
COC(=O)c1ccc(Oc2nc(N3CCCCC3)nc(N3CCOCC3)n2)cc1	89%
O=C(O)CN1CCNCC1	-5%
CCOC(=O)c1ccccc1NC(=O)c1cc2sccc2n1C	4%
O=C1C2CCCN2C(c2ccccc2F)N1c1ccc(F)cc1 (centres undefined)	0%
COc1cccc(NC(=O)N(CCCN2CCOCC2)C(C)c2cc3cccc(OC)c3o2)c1 (centres undefined)	146%
Cc1noc(C)c1COc1ccc(C(=O)OCc2nnc(-c3ccc(Cl)cc3)o2)cc1	22%
COc1ccc(CCNC(=O)CSc2nnnn2-c2ccccc2OC)cc1OC	41%

A second format for some results above.
smiles: CC[C@@]1(O)C(=O)COc2c1cc1n(c2=O)Cc2c-1nc1cccc(C(C)C)c1c2[Si](C)(C)C
  AmpC inh no det = 82%
smiles: CCn1nc(NC(=O)c2cccnc2)c2cc3cccc(C)c3nc21
  AmpC inh no det = -2%

Going on with the list.
structure	AmpC inh no det
COC(=O)c1[nH]c(C)c(/C(O)=C2\C(=O)C(=O)N(CCCN3CCOCC3)C2c2ccccn2)c1C (centres undefined)	12%
Cc1cc(Cl)ccc1OCC(=O)O	-14%
COc1ccc(CNC(=O)C2COc3ccccc3O2)cc1 (centres undefined)	2%
FC(F)(F)c1cc(CN2CC3(CCNCC3)C2)cc(C(F)(F)F)c1	5%
COC(=O)CN(C)C1CC(=O)N(c2ccc(Cl)cc2)C1=O (centres undefined)	-11%
CCn1c(COc2ccccc2C)nnc1SCC(=O)CC(=O)Nc1ccccc1OC	76%
CC(=O)N1CCN(CCN=CC2=C(O)CC(c3ccco3)CC2=O)CC1 (centres undefined)	10%
CCOC(=O)c1cccc(NC(=O)CS(=O)(=O)Cc2nc(-c3cccc(OC)c3)oc2C)c1	30%
CCC(C)NC(=O)CSc1nnc(-c2ccncc2)n1-c1ccc(OC)cc1 (centres undefined)	25%
O=C(Cc1ccc(-n2cccc2)cc1)N1CCc2ccccc21	-9%
CN(c1ccc(C(=O)NCCSC(C)(C)C)cc1)S(C)(=O)=O	6%
CCNc1ncc2nc(-c3ccc(Cl)cc3)c(=O)n(-c3ccccc3)c2n1	6%
COc1cccc(C(=O)OCC(=O)Nc2ccccc2N2CCOCC2)c1	37%
O=C(NCc1ccccc1)c1ccc(-c2ccccc2F)o1	-6%
O=C(NCCCn1ccnc1)c1cc2c(s1)CCCCC2	8%
COC(=O)c1ccc(CSc2ncn[nH]2)o1	2%
Fc1cccc(-c2cc3nc4c(c(N5CCC6(CC5)OCCO6)n3n2)CCCC4)c1	74%
Cc1cc(=O)oc2cc(OCC(O)CN3CCN(c4ccccc4)CC3)ccc12 (centres undefined)	58%
CN1C(=S)SC(/[N+]([O-])=C\c2cccs2)C1(C)C (centres undefined)	2%
OCCN1CCN(CC(O)COc2ccc3c(c2)OCO3)CC1 (centres undefined)	-4%
Nc1c(Nc2ccccc2)c2ccccc2oc1=O	-20%
O=S(=O)(c1ccccc1)N1CCC[C@@]2(CCN(c3ccncc3)C2)C1	11%
Cc1cc(NC(=O)COC(=O)C(Nc2ccc(C(F)(F)F)cc2Cl)C(C)C)no1 (centres undefined)	-12%
CCCCn1c(CN2C(=O)c3ccccc3C2=O)nc2ccccc2c1=O	-7%
Nn1c(-c2ccco2)n[nH]c1=S	-11%
CC(O)CCC(=O)NCCNC(=O)CCC(C)O (centres undefined)	-5%
O=C(NCC1CCCO1)C1C2C=CC3(CN(Cc4cccs4)C(=O)C13)O2 (centres undefined)	-2%
COC(=O)c1c(NC(=O)Cc2cccs2)sc2c1CCCC2	-22%
CCN1CCN(CCCNC(=O)c2cc3sccc3n2CC)CC1	6%
CC(=O)c1ccc(OCC(O)CN2C(C)CCCC2C)cc1 (centres undefined)	4µM*[single pt active]

New compounds follow
structure	AmpC inh no det
O=C1CCN(Cc2nnnn2CC2CCCO2)c2ccccc2N1 (centres undefined)	-2%
COc1c(S(=O)(=O)n2nc(C)cc2C)ccc(Cl)c1Cl	55%
FC(F)(F)c1cc(-c2ccco2)nc(N2CCOCC2)n1	24%
Cc1cccc(NC(=O)C2CCCN(S(=O)(=O)c3cccc4cccnc34)C2)c1 (centres undefined)	21%
CCc1cccc(CC)c1N(COC)C(=O)Cn1c(CO)nc2ccccc21	129%
CC(=O)c1c(C)[nH]c(C(=O)N2CCN(C(=O)c3ccco3)CC2)c1C	-3%
CCN(CC)C(=O)N1CCN(S(=O)(=O)c2ccc(C)c(C)c2)CC1	65%
COCCN1C(=O)C(=O)/C(=C(/O)c2cccc(S(=O)(=O)N(C)C)c2)C12C(=O)N(C)c1ccccc12 (centres undefined)	-6%
Cc1ncc(CSC(=N)N)n1Cc1ccccc1	-6%[5.75 µM]
CC1(C)CC(N2CCC(=O)N(C3CC(C)(C)NC(C)(C)C3)C2)CC(C)(C)N1	-10%
CN(C)C(=O)c1ccc(-c2cc(NCc3ccccc3)ncn2)cc1	24%
O=C(O)C(Cl)Br (centres undefined)	-1%
CCCOc1cc(C)c(S(=O)(=O)N2CCN(C)CC2)cc1C	75%
O=C(CC1Nc2ccccc2NC1=O)c1ccccc1 (centres undefined)	-15%
CC(C)CCNc1ncnc2c1nnn2Cc1ccccc1Cl	-8%
CCCc1nc(N)c(C#N)c(N)c1C#N	-10%
N#CC1=C(SCC(=O)NCc2ccccc2)NC(=O)CC1c1ccco1 (centres undefined)	7%
CN(C)c1nc(-c2ccc3c(c2)OCO3)nc2ccccc12	39%
CCOc1ccc2[nH]c(O)c(NC(C)=O)c2c1	4%
CCCCn1c(SCC(=O)Nc2cc(NC(=O)c3ccco3)ccc2C)nc2ccccc2c1=O	13%
CCCCNC(=O)c1ccc2c(c1)ncn2C1CCCCC1	8%
CCn1c(SCC(=O)n2c(C)c(C)c3ccccc32)nnc1-c1ccco1	125%
COc1cccc(C(=O)Nc2ccc(C(=O)O)cc2)c1	-14%
COc1cccc(NC(=O)CNC(=O)c2cccs2)c1	-7%
CCCc1cc(=O)[nH]c(SCC(=O)N(C)CC(=O)Nc2ccccc2CC)n1	20%
O=C(Cn1cnc2ccccc2c1=O)OCC(=O)c1ccc2c(c1)OCCO2	10%
CNC(=O)Nc1cccc(C(F)(F)F)c1	0%
COc1cc(NC(=O)Cc2cccs2)cc(OC)c1	-10%
COc1cccc(C(=O)NCc2n[nH]c(=S)n2-c2cccc(C)c2)c1	3%
O=C1CC(c2ccc(Cl)cc2)n2nc(N3C(=O)c4ccccc4C3=O)nc2N1 (centres undefined)	8%

Following part:
structure	AmpC inh no det
O=C(c1ccccc1S(=O)(=O)NCc1ccccc1)N1CCCC1	26%
COc1cccc(N2C(=O)C3CC=C(Cl)CC3C2=O)c1 (centres undefined)	-2%
O=C(Cc1c(O)c2ccccc2[nH]c1=O)NCc1ccc(F)cc1	-19%
Cc1c(F)cccc1NC(=O)CCC(=O)O	-10%
Cc1ccccc1-c1cc(-c2ccccc2O)n[nH]1	-4%

Reformatted field by field: 2 of the compounds above
Cc1c(F)cccc1NC(=O)CCC(=O)O
- AmpC inh no det = -10%
Cc1ccccc1-c1cc(-c2ccccc2O)n[nH]1
- AmpC inh no det = -4%
